Insulin prom inh: TRM-6 insulin promoter activity inhibition. TRM-6 cells (human fetal islet line), insulin promoter-eGFP reporter, imaging; reporter expression induced with tamoxifen. inhibition, % at 2 µM. 0.9% of 130,000 active. AID 1273;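 active means inhibition above the mean plus 3 SD, with well images judged a real hit on visual review, cut at about 60% in these data, passing the limit was not always enough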
GALR2 ag: agonists of human galanin receptor 2 (GALR2) | AID 803 | GALR2-expressing cells, agonist activation read-out | activation, %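 (tested at 5 µM)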 | 0.48% of 140,000 active;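 active means above mean plus 3 SD of all compounds, about 5% in these data, not always enough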;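 further: 0% = vehicle buffer wells and 100% = reference agonist at full effect; tested in CHO reporter cells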
Target sequence (O43603 whole entry, looked up): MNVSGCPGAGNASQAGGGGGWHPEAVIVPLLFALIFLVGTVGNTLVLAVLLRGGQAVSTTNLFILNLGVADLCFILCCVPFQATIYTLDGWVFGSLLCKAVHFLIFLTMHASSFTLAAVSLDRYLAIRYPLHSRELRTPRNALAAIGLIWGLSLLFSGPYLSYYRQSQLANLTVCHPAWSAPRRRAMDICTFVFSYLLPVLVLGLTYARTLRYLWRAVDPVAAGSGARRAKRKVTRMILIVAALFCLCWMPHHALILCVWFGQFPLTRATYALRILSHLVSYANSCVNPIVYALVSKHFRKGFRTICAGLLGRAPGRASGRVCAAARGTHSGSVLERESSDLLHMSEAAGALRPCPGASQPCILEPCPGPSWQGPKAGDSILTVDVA
HSV augment: HSV replication enhancement; 0.005% of 220,000 active; maximum fold increase; HSV replication augmentation in cells, fold increase; AID 1956;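 active means peak rise of 1.5-fold or more in the series; tested in PC3 cells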;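 further: first round at 10 µM; read as green reporter fluorescence; hits show the peak of a series up to 25 µM; 1 = signal of infected wells without compound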
RGS16-Gao HTS: regulators of human RGS16-Galphao interaction; binding response (% of control), % at 10 µM; bead-based flow cytometry RGS16-Galphao binding, fluorescence; actives lie on both sides; 0.38% of 220,000 active; O15492+P09471;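 active means below 25% or above 175%, edge rows of some plates excepted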;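 further: Galphao activated by GDP with aluminum fluoride before binding; 100% = wells without compound and 0% = beads without RGS; some results beyond the cut were filed as inactive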
Target sequence (O15492 whole entry, looked up): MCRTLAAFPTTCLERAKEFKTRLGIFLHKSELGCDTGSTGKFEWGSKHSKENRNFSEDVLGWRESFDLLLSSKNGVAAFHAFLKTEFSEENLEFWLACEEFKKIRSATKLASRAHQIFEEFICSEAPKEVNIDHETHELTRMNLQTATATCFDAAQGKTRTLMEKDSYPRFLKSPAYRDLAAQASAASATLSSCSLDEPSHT
Target sequence (P09471 whole entry, looked up): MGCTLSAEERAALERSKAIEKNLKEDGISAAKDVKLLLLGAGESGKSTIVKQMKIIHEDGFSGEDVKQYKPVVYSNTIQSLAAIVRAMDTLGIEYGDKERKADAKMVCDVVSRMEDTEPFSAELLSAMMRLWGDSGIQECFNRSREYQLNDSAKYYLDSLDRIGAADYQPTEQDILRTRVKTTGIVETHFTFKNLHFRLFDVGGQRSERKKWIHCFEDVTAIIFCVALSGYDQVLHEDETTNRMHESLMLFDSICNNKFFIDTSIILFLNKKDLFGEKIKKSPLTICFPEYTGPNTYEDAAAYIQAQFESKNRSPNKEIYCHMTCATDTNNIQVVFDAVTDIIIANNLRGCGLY
PKD1 kinase inh: inhibitors of human PKD1 kinase. Q15139. PKD1 kinase fluorescence polarization assay. inhibition, %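 (about 10 µM by stock and volumes)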. 0.056% of 200,000 active. AID 797;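 active means inhibition of 50% or more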;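 further: controls were vehicle for no effect and a reference inhibitor for full effect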
Insulin prom inh cell count: second read-out of Insulin prom inh, no call of its own (marks repeat the call); normalized cell count, %; measured here: cell count, toxicity; reference of the scale not given here;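 cells exposed to compound for 48 h; stained nuclei by imaging scaled within each plate; lower means fewer cells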
HSV augment primary fold: recorded beside HSV augment, whose call it bears; fold increase; compound at 10 µM; measured here: primary screen fold increase 10 uM; tested in PC3 cells;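 GFP signal in the first replicate; 1 = infected wells without compound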
* = called active by the depositor; i = inactive; · = not tested or not shown; & = joins results of further samples.

Compound,Insulin prom inh,Insulin prom inh cell count,GALR2 ag,HSV augment,HSV augment primary fold,RGS16-Gao HTS,PKD1 kinase inh
COc1ccc(OC)c(NC(=O)C(C)Oc2ccc(Br)cc2)c1 (stereo unspecified),·,·,·,i,0.78,101,-7
CN(C)S(=O)(=O)N1CCN(C(=O)N2CCOCC2)CC1,·,·,-1.1,i,1,103,0
NNC(=O)c1ccc(CSc2n[nH]c(=O)[nH]c2=O)cc1,·,·,·,i,0.83,106,·
COc1ccccc1/C=N/NC1=NCCCCC1,67,46,-0.1,i,0.74,103,0
Cn1cc(SCC(=O)NCC2CCCO2)c2ccccc21 (stereo unspecified),·,·,·,i,0.96,98,-9
Clc1ccc(-n2nnnc2-c2ccccc2)cc1,·,·,-1.4,i,1.1,99,-1
O=C(N/N=C/c1ccc([N+](=O)[O-])o1)c1cn(-c2ccccc2)nc1-c1ccc(Cl)cc1,·,·,·,i,0.87,96,2
Cc1cccc(NC(=O)C2CCN(S(=O)(=O)c3cccs3)CC2)c1,-21,117,-1.1,·,·,104,-1
COc1ccc(OC)c(C(=O)c2oc3ccccc3c2NC(C)=O)c1,-114,45,-1.3,i,0.73,101,17
O=C(N/N=C/c1cc2c3c(c1O)CCCN3CCC2)c1ccccc1O,53,27,-1.5,i,1.2,-13,-2
O=C(O)c1cc(-c2ccco2)nc2ccc(Br)cc12,77*,154*,-1.4,i,1.1&1.1,99&85,-4
c1ccc(Cc2noc(CN3CCN(CCOc4ccccc4)CC3)n2)cc1,·,·,·,i,1.1,109,1

Further records.
Compound,Insulin prom inh,Insulin prom inh cell count,GALR2 ag,HSV augment,HSV augment primary fold,RGS16-Gao HTS,PKD1 kinase inh
COc1ccc(/C(N)=N/OC(=O)c2ccc([N+](=O)[O-])c(C)c2)cc1OC,-47,68,·,i,0.96,99,-5
COCc1cc(C)nc(OCC(=O)N/N=C/c2ccc(-c3cc([N+](=O)[O-])ccc3Cl)o2)c1C#N,-35,111,·,i,0.99,108,-4
O=C(N1CCCCC1)N1CCC(c2nc3ccccc3[nH]2)CC1,·,·,·,i,1.1,106,·
Cc1nn(-c2ccccc2)c2[nH]c(=O)c(CNCC3CCCO3)cc12 (stereo unspecified),0,110,-1.4,i,0.81,101,-9
O=C(Nc1ccccc1)[C@@H]1[C@@H]2C(=O)N(c3ccc(F)cc3)C(=O)[C@@H]2[C@H]2C=CC=NN21,·,·,·,i,1.1,97,·
CCOC(=O)Cn1nnnc1CN(CCc1ccccc1)Cc1cc2cc(CC)ccc2[nH]c1=O,-73,26,-1.7,i,1,106,-2
CC(=O)c1cc(C#N)c(N2CCOCC2)nc1C,·,·,·,i,0.89,101,-11
CN(CC(CC(=O)O)c1ccccc1)S(=O)(=O)c1ccc(Br)cc1 (stereo unspecified),·,·,-1.3,i,0.84,101,-11
CCC(=O)Nc1ccc(Oc2ccc3c(c2)C(=O)N(c2ccc(O)cc2)C3=O)cc1,-28,37,0.8,i,1,102,5
Cc1cc(N2C(=O)CC(N3CCN(c4ccc(C(=O)c5cccs5)cc4)CC3)C2=O)no1 (stereo unspecified),-438,46,-1.1,i,1,103,-2
C[C@@H]1NC(=O)[C@H](CCCN=C(N)N)NC(=O)c2cc([N+](=O)[O-])cc(I)c2OCC[C@@H](C(N)=O)NC1=O,9,86,-2.4,i,1,100,-5
Nc1nc(Cl)cc(Sc2ccc(F)cc2)n1,31,108,-1.8,i,0.94,101,3

Remaining list, next part:
Compound,Insulin prom inh,Insulin prom inh cell count,GALR2 ag,HSV augment,HSV augment primary fold,RGS16-Gao HTS,PKD1 kinase inh
COc1ccc(-c2cc(C(=O)NCC3CCCO3)c3cc(C)ccc3n2)cc1 (stereo unspecified),-20,116,·,i,0.99,98,0
O=C(Nc1ccccc1Oc1ccccc1)c1ccc(Br)o1,11,166,-1.1,i,1,102,-2
CCOc1cc(NC(=O)c2cccs2)c(OCC)cc1NC(=O)CCC(=O)NCCN1CCOCC1,·,·,·,i,0.89,100,-6
O=C(Nc1nncs1)C1(c2ccccc2)CCCC1,-39,99,-1.5,i,0.96,98,-8
Cc1ccc(Cl)cc1N1CCN(C(=O)c2cc3c(=O)[nH]c4ccccc4c3n2C)CC1,-33,87,-0.6,i,0.68,40,-12
O=c1[nH]c2cc3c(cc2cc1C(c1nnnn1Cc1ccccc1)N1CCCCCC1)OCCO3 (stereo unspecified),-12,110,-1.9,i,0.8,100,-1
CCN1C(=O)/C(=C\N2CCN(c3cccc(Cl)c3)CC2)SC1=S,·,·,-0.7,i,0.91,101,1
C=CCn1c(CC(=O)Nc2cccc(OC)c2)nnc1SCC(=O)NC1CCCCC1,-68,97,0.1,i,1.1,102,-2
CCc1cccc(CC)c1NC(=S)NCCc1c(C)[nH]c2ccc(C)cc12,-56,100,-0.7,·,·,92,-7
CCOc1ncccc1C(=O)Nc1nnc(C)s1,36,119,·,i,0.96,114,-6
Cc1ccnn1CC(=O)N/N=C/c1ccc2c(c1)OCO2,-17,65,-1.4,i,1.1,125,-9
[O-][N+]1=C(c2cccs2)CN(O)C1,17,65,-1.0,i,1,97,-12

Part of the list above in order of count of non-hydrogen atoms, rising:
Compound,Insulin prom inh,Insulin prom inh cell count,GALR2 ag,HSV augment,HSV augment primary fold,RGS16-Gao HTS,PKD1 kinase inh
[O-][N+]1=C(c2cccs2)CN(O)C1,17,65,-1.0,i,1,97,-12
Nc1nc(Cl)cc(Sc2ccc(F)cc2)n1,31,108,-1.8,i,0.94,101,3
CCOc1ncccc1C(=O)Nc1nnc(C)s1,36,119,·,i,0.96,114,-6
O=C(Nc1nncs1)C1(c2ccccc2)CCCC1,-39,99,-1.5,i,0.96,98,-8
Cc1ccnn1CC(=O)N/N=C/c1ccc2c(c1)OCO2,-17,65,-1.4,i,1.1,125,-9
O=C(Nc1ccccc1Oc1ccccc1)c1ccc(Br)o1,11,166,-1.1,i,1,102,-2
CCc1cccc(CC)c1NC(=S)NCCc1c(C)[nH]c2ccc(C)cc12,-56,100,-0.7,·,·,92,-7
COc1ccc(-c2cc(C(=O)NCC3CCCO3)c3cc(C)ccc3n2)cc1 (stereo unspecified),-20,116,·,i,0.99,98,0
C=CCn1c(CC(=O)Nc2cccc(OC)c2)nnc1SCC(=O)NC1CCCCC1,-68,97,0.1,i,1.1,102,-2
O=c1[nH]c2cc3c(cc2cc1C(c1nnnn1Cc1ccccc1)N1CCCCCC1)OCCO3 (stereo unspecified),-12,110,-1.9,i,0.8,100,-1
C[C@@H]1NC(=O)[C@H](CCCN=C(N)N)NC(=O)c2cc([N+](=O)[O-])cc(I)c2OCC[C@@H](C(N)=O)NC1=O,9,86,-2.4,i,1,100,-5

Continued:
Compound,Insulin prom inh,Insulin prom inh cell count,GALR2 ag,HSV augment,HSV augment primary fold,RGS16-Gao HTS,PKD1 kinase inh
[O-][n+]1onc2c1CCc1c-2nc(-c2ccccc2)n1OCc1ccccc1,·,·,0.2,i,0.97,100,-1
COc1cc(NC(=O)c2cccs2)c(C(=O)OCC(=O)NC(=O)NCc2ccccc2)cc1OC,-29,104,-0.1,i,1,-65,-2
COc1cccc(CC(NC(C)=O)C(=O)NC2CCN(S(=O)(=O)c3cccc4ccccc34)CC2)c1 (stereo unspecified),12,182,-1.0,i,0.85,123,-7
O=c1oc(-c2ccco2)nc2ccccc12,-9,105,-2.6,i,0.84,111,-5
CCOC(=O)c1cccc(NC(=O)CCn2cccc2)c1,-100,105,-2.8,i,0.9,107,1
CCOC(=O)Cn1nnc(-c2ccc(S(C)(=O)=O)cc2)n1,-40,26,0.2,i,0.97,99,2
Cc1oc(-c2cc(F)ccc2F)nc1CN1CCCN(C(=O)c2ccco2)CC1,·,·,·,i,1.1,101,3
NC(=O)N/N=C/c1cc(F)cc(F)c1,·,·,·,i,0.93,98,·
Cc1cc(-c2nnc(SCC(=O)N3C(C)CCCC3C)o2)no1 (stereo unspecified),·,·,-2.1,i,1.2,101,2
O=C(COc1ccc(-c2ccccc2)cc1)N1CCN(C(=O)c2cccnc2)CC1,-39,96,-3.1,i,0.89,89,-5
O=CN1CCN(C(=O)CN2C(=O)c3ccccc3C2=O)CC1,·,·,-1.4,·,·,103,6
COc1ccc(C)cc1NC(=O)CC1COc2ccccc2O1 (stereo unspecified),·,·,·,i,1,108,-9

The listing continues.
Compound,Insulin prom inh,Insulin prom inh cell count,GALR2 ag,HSV augment,HSV augment primary fold,RGS16-Gao HTS,PKD1 kinase inh
COc1ccc2cc(CN(CCO)C(=O)c3ccccc3F)c(=O)[nH]c2c1,15,95,-1.4,·,·,97,-3
CCCCCCn1c(N2CCC(C(N)=O)CC2)nc2c1c(=O)[nH]c(=O)n2C,·,·,0.1,i,1.1,96,-1
Cc1ccc2c(c1)C1NC(=S)NC(C)(O2)C1C(=O)Nc1ccc(Cl)cc1 (stereo unspecified),-63,94,-0.9,i,0.8,98,9
CCOC(=O)CNC(=O)c1ccccc1Br,18,85,0.3,i,0.81,103,-19
O=C(COC(=O)CCc1ccc(S(=O)(=O)N2CCCCC2)cc1)Nc1ccc2c(c1)OCO2,0,77,-1.6,i,0.92,93,0
CCOC(=O)c1ccc(-n2c(C)nc3c(cnn3-c3ccc(Cl)cc3)c2=O)cc1,60,167,-1.3,i,1,96,-4
COc1cc(/C=N/NC(=O)[C@H](Cc2c[nH]c3ccccc23)NC(=O)OCC(C)C)cc([N+](=O)[O-])c1O,·,·,-0.5,i,0.9,82,-1
CCOC(=O)CNC(=O)c1sc(NC(=O)c2ccccc2F)nc1C,-42,65,-1.6,i,0.94,97,3
c1ccc(CSc2nnc(SCc3ccccn3)s2)nc1,·,·,-3.0,i,0.96,98,2
CCCNC(=O)c1cc(OC)c(OC)cc1[N+](=O)[O-],7,106,-2.1,i,1,106,-8
NC(=O)C1CCCN(C(=S)NCc2ccc3c(c2)OCO3)C1 (stereo unspecified),-56,44,·,i,1,99,2
O=C(N1CCN(c2ccc(F)cc2)CC1)C1(c2cccs2)CCOCC1,·,·,-1.0,i,1,102,5

The results go on.
Compound,Insulin prom inh,Insulin prom inh cell count,GALR2 ag,HSV augment,HSV augment primary fold,RGS16-Gao HTS,PKD1 kinase inh
CC1C(=O)C(C)C(c2cccs2)NC1c1cccs1 (stereo unspecified),14,127,-0.2,i,1.2,90,1
O=C1CSC(c2ccccn2)N1c1ccc(F)cc1F (stereo unspecified),·,·,·,i,0.94,100,8
CN(Cc1ccccc1)C(=O)c1oc(=O)c2ccccc2c1-c1ccccc1,-11,114,-0.1,i,0.91,100,-4
CN1C(=O)N(C)C2(c3ccccc3)N(C(C)(C)C)C(=O)NC12c1ccccc1 (stereo unspecified),-50,103,-1.7,i,1,100,-9
O=C(CNC(=O)c1ccc(S(=O)(=O)N2CCCC2)cc1)N/N=C/c1c(Cl)cccc1Cl,-119,51,-0.6,i,0.86,100,-3
C/C(=N\NC(=O)c1ccncc1)c1cccs1,·,·,·,i,1,97,-3
CCOc1ccc(-c2nc(CN3CCCCC3CCn3cccn3)c(C)o2)cc1 (stereo unspecified),·,·,·,i,1.1,118,·
O=C(O)CCc1ccc(-c2ccc(Cl)cc2)n1Cc1ccco1,69,107,-0.1,i,0.72,97,1
COc1ccc(OC)c(NC(=O)Cn2cc(C(=O)c3ccco3)c3ccccc32)c1,15,83,-1.1,i,1.1,101,5
Cc1ccccc1N=C/C=C1\N(C)c2ccccc2C1(C)C,38,62,-2.5,i,1.2,86,-4
C=CCNC(=O)c1c2c(nc3ccccc13)-c1ccccc1CC2,-18,97,-1.2,i,0.85,82,8

The order is random; about 1.1% have a hit in one of these screens.
